Screening data as filed in PubChem BioAssay.
Menin MLL FP FL = menin-MLL binding inhibition, fluorescein peptide | Fluorescence polarization, fluorescein-MLL peptide displacement from menin | FP activity change, % at 61.4 µM | 290,000 tested, under 10 active | AID 1766; inconclusive = falling polarisation curve, or a change in total fluorescence; inactive = total fluorescence flat and polarisation flat or rising; no compound was filed as active; the % refers to the polarisation; negative = inhibition;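 also: % of control where 0% means no effect; inhibitors lower the polarisation; unlabelled MLL peptide was the positive control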
Sfp PPTase inh = Sfp phosphopantetheinyl transferase inhibition | Q9F4F7 | Biochemical Sfp PPTase activity, qHTS | Potency, µM, for inactives: max response, negative = inhibition, actives largely listed as inhibitors | 3.5% of 310,000 active | AID 1490; active = well fitted inhibition curve with a large enough effect; inconclusive = small, poorly fitted or top-dose-only effect, or another doubt; inactive = no such curve, though single readings can be large or run the other way;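 also: the enzyme is Sfp with the accession as filed and its product quenches rhodamine fluorescence; potency is read from the fitted curve at half-maximal effect; 0% = enzyme reaction without inhibitor and -100% = no enzyme wells; top concentration of the series not given in the record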
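With Hepes-Na pH 7.6 buffer containing 10 mM MgCl2, Sfp (15 nM) modified BHQ-2-YbbR (12.5 uM) using rhodamine-CoA (5 uM). Two reads 30 minutes apart at 525/598 nm yielded each well's rate.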
gsp antagonist = gsp mutant antagonism. 0.4% of 340,000 active. Potency, µM (series often up to 76.9 µM), without a hit: at the highest dose activity change, negative = inhibition, usual class: inhibitors. gsp-mutant cells, cAMP HTRF, 30 min; control for the full effect not named in the record. AID 624288; active = falling curve of any shape with a large fitted effect; inconclusive = falling curve, mostly with a smaller effect; inactive = flat or rising curve; cell line not stated here;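 also: intracellular cAMP measured with PDE inhibitor Ro 20-1724 present during compound exposure; potency is read from the fitted curve at half-maximal effect; % is scaled to controls: 0 for no effect and ±100 for the full control effect; nearly all actives have a fitted effect of over 65% in size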
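HTRF cAMP measurement after 30 min RT detection following 30 min, 37C compound treatment alongside […] (added as 300 uM solution) in G418-selected cells seeded at 2000/well and grown 16–24 h.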
TRPV1 PAM = potentiators of human vanilloid receptor 1 (TRPV1). Q8NER1. TRPV1-expressing cells, Fluo-8 calcium influx, capsaicin EC20 potentiation; host cell line not named in the record; control for the full effect not named in the record. potentiation, % at 8.33 µM. 0.02% of 320,000 active; active means potentiation above 80%; inconclusive means 30% to 80%; inactive means below 30%; also: 0% is about no effect
Target sequence (Q8NER1 whole entry, looked up): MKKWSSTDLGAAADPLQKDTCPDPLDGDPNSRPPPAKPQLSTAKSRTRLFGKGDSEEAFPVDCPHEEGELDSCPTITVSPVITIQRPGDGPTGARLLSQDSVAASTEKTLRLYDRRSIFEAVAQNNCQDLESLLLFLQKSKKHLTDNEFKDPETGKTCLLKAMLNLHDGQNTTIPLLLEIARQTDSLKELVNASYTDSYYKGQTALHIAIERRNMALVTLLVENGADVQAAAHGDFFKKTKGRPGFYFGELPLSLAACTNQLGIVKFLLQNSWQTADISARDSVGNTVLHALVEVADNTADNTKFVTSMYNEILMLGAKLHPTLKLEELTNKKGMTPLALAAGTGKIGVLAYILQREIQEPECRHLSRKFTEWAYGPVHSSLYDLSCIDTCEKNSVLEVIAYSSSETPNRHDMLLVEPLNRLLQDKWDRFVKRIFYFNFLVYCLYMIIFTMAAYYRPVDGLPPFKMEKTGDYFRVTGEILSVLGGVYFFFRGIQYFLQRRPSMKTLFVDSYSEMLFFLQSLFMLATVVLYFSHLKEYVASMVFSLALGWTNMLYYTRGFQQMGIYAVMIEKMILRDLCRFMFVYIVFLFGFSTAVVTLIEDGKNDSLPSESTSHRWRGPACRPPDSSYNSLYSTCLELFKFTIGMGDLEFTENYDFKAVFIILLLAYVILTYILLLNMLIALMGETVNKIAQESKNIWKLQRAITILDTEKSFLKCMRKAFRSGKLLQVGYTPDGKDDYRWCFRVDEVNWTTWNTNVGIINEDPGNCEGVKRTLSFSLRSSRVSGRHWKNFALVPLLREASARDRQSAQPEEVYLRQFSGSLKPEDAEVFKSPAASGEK
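Fluo-8 calcium influx in TRPV1-expressing cells, kinetic read (ex 480/em 520 nm). Compound added and read 3 min for agonist activity, followed by capsaicin at EC20 final and 2 min further read for enhancement.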
D2 PAM = human D2 receptor positive allosteric modulation. P14416. DiscoveRx D2 beta-arrestin cells, luminescence, 90 min; 100% = 57 uM dopamine signal. potentiation, % (concentration not given with the values). 0.23% of 360,000 active. AID 624464; active = potentiation of 50% or more; inconclusive = 30% to 50%; inactive = 30% or less;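 also: compound concentration not given in the record; tested on top of an EC20 dose of dopamine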
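PathHunter beta-arrestin assay in DiscoveRx D2 cells. Compounds were added with an EC20 of dopamine (50 nM final) for 90 min at 37 deg C. Luminescence was read 1 h after detection reagent, with 57 uM dopamine as the EC100 control.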
gsp ag = agonists of gsp mutant (McCune-Albright syndrome). gsp mutant cells, cAMP HTRF, 30 min; control for the full effect not named in the record. Potency, µM (doses to about 76.9 µM), for the others: at the highest dose activation (cAMP increase), most hits filed as activators. 0.13% of 340,000 active. AID 624287; active = well fitted activation curve with a large enough effect; inconclusive = small, poorly fitted or top-dose-only effect, or another doubt; inactive = no such curve, though single readings can be large or run the other way; cell line not stated here;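 also: phosphodiesterase inhibitor Ro 20-1724 added with compounds to block cAMP breakdown; potency is read from the fitted curve at half-maximal effect; nearly all actives have a fitted effect of over 60% in size; about a fifth of the inactives were tested at one dose only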
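Cells in DMEM/10% FBS with G418 were pretreated with compounds in DMSO plus […] (300 uM stock) for 30 min at 37C. cAMP was measured by HTRF (cAMP-d2 plus anti-cAMP antibody-K) after 30 min at room temperature.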
ClpP mod = qHTS Assay for Activators of ClpP; ATP-dependent Clp protease proteolytic subunit (Bacillus subtilis (strain 168)), P80244; purified B. subtilis ClpP, FRET peptide cleavage, 20 min; Potency, µM (series often up to 57.5 µM), inactives show at the top dose activity change, negative = active; 1.9% of 340,000 active; AID 651965, 2013; active = well fitted falling curve with a large enough effect; inconclusive = small, poorly fitted or top-dose-only effect; inactive = no such curve, though single readings can be large or run the other way; also: potency is read from the fitted curve at half-maximal effect; the source files actives as falling curves though it sought activators and does not explain the sign; nearly all actives have a fitted effect of over 65% in size; many hits overshoot -100%
Target sequence (P80244 whole entry, looked up): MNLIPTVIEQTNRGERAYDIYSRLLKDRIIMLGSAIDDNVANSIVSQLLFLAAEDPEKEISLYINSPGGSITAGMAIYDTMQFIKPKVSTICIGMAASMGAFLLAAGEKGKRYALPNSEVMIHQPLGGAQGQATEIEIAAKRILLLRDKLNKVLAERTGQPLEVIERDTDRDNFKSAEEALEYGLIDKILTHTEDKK
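Purified B. subtilis ClpP, 10 microg/mL final in Tris/HCl pH8 with KCl, BSA, glycerol and Tween-20, cleaved an Abz/nitrotyrosine-quenched decapeptide. Fluorescence (ex 320, em 430) was read at 0 and 20 min at room temperature. Delta was normalized to 5.8 microM ADEP and DMSO/no-enzyme controls.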
* hit, by the source's call; ? = inconclusive; · = not tested or not shown; [ ] = remark or other dose.

SMILES	Menin MLL FP FL	Sfp PPTase inh	gsp antagonist	TRPV1 PAM	D2 PAM	gsp ag	ClpP mod
CCC(C)C(=O)OCC1(c2ccc(C)cc2OC(=O)C(C)C)CO1 (stereo not given)	-0.2	-1.5%	5.9%	-11.6	-21.3	·	-0.5%
CC1CCN(C(=S)NC(=O)C2CCCCC2)CC1	0.6	9.1%	9.9%	-9.3	-18.0	24.7%	-18.6%
N#CC(C#N)=Cc1ccc(-c2ccc(S(=O)(=O)N=C(N)N)cc2)o1	?	?	1.5%	-3.1	-2.1	-7.0%	-1.2%
CCN1C(=O)C(O)(CC(=O)c2ccc(-n3cccc3)cc2)c2ccccc21 (stereo not given)	2.9	15.7%	1.1%	19.4	-7.2	-17.1%	-0.5%
COc1cccc(C(=O)NOCc2ccccc2)c1OC	·	·	5.6%	2.0	-3.7	-14.4%	-0.3%
COc1ccccc1CNC(=O)COC(=O)c1ccncc1	·	·	13.5%	·	-6.3	10.4%[15.4 µM]	-7.0%
Cn1c(CCc2ccccc2)n[nH]c1=S	-6.5	-1.6%	0.0%	1.3	-8.3	-5.3%[15.4 µM]	-1.3%
CC1c2nc3ccccc3n2C(CC(=O)NCCCN2CCOCC2)C(=O)N1Cc1ccccc1 (stereo not given)	-2.9	-9.7%	1.4%	3.7	-8.3	?	·
O=C(Cc1ccc(S(=O)(=O)N2CCCC2)s1)NC1CCCCCC1	-1.5	19.0%	-0.9%	13.0	-6.5	-0.8%	-16.0%
COc1ccc(OC)c(C2=NOC(C(=O)Nc3cccc(C(C)=O)c3)C2)c1 (stereo not given)	3.3	0.8%	1.0%	3.0	-19.5	-0.4%	-17.1%
Cc1ccc2c(c1)N(C(=O)CCC(=O)NCc1cccc(Cl)c1)CC(C)O2 (stereo not given)	-1.3	7.2%	-12.0%	-9.7	-11.7	-25.0%	-0.1%
COc1cc(C)c(C(C)C)cc1S(=O)(=O)N1CCN(C)CC1	3.4	12.6%	11.3%	-16.7	-10.8	-32.4%	-1.3%
S=c1[nH]nc(CN2CCCC2)n1Cc1ccccc1	0.7	16.2%	-0.6%	4.7	-3.4	-23.4%[15.4 µM]	·
Sc1nnc(-c2ccc(Cl)cc2)n1Cc1ccccc1	·	·	3.0%	5.0	-16.3	-39.5%[inhibitor]	-23.6%
Cn1c2ccc(F)cc2c2ncn(Cc3ccccn3)c(=O)c21	0.6	-5.7%	10.0%	-4.4	-4.4	4.1%[15.4 µM]	-0.1%
O=C(NNC(=O)c1cccc(-n2cccc2)c1)c1ccc(F)cc1	·	·	3.5%	14.7	-33.5	-41.6%[inhibitor]	-3.3%
O=C(NC1CC1)c1ccc2snnc2c1	2.3	23.3%	4.9%	2.4	-3.6	0.0%	·
Cc1nnc(SCC(=O)NC(=O)NC2CCCC2)n1N	-1.4	10.2%	2.4%	14.4	-2.4	?	-1.0%
Cc1ccc(C(=O)OCC(=O)Nc2sc3c(c2C#N)CCC3)cc1	6.2	-17.0%	-6.2%	-0.1	-15.9	11.7%[15.4 µM]	1.1%
O=C1C2CC=CCC2C(=O)N1CC1CCCO1 (stereo not given)	1.4	21.8%	22.7%	9.0	-6.0	-28.5%	-0.6%
COc1ccc(CCCC(=O)NC2CCCCC2C)c(C)c1 (stereo not given)	-0.8	3.6%	-1.4%	16.5	4.3	-20.0%	-0.7%
COc1cc(/C=C/C(=O)OCC(=O)NC2CC2)cc(OC)c1OC	·	·	-1.0%	·	-15.7	7.6%	?
C=CCNc1nc(N2CCCCC2)c(C#N)c2c1CN(Cc1ccccc1)CC2	-0.6	-5.7%	-1.5%[15.4 µM]	-8.1	-43.5	?	28.2µM*
COc1ccc(C2Nc3ccccc3C(=O)N2NS(C)(=O)=O)cc1 (stereo not given)	0.3	7.0%	12.7%	5.0	-5.3	2.3%[15.4 µM]	·
COc1ccc(-c2sc3cc4c(cc3c2C#CC2(N)CCCCC2)OCO4)cc1	·	·	8.7%	3.2	-15.5	·	3.7%
CCOC1(OCC)OC(c2ccccc2)=C(C#N)C(C=Cc2ccccc2)C1(OCC)OCC (stereo not given)	·	·	·	·	-9.8	-3.0%	-3.1%
CCCOC(=O)CSC1=C(C#N)C(c2ccccc2OC)C(C#N)C(=O)N1 (stereo not given)	0.8	-7.4%	12.2%	-3.5	-32.9	?	0.4%
O=S(=O)(c1ccc(Br)cc1F)N1CCC(O)CC1	·	·	2.8%	·	-9.0	·	0.1%
CC(C)=NN/C(N)=N/C(=S)Nc1ccc(C)cc1	3.7	-70.8%	2.3%	0.5	4.6	?	1.6%
CCCCn1c(N)c(N(CC)C(=O)CCNC(=O)c2ccc(Cl)cc2)c(=O)[nH]c1=O	·	·	5.1%	·	-6.5	10.4%[15.4 µM]	-2.5%
CC(NC(=O)Nn1cnnc1)(C(F)(F)F)C(F)(F)F	-1.7	-9.1%	11.5%	3.5	-14.4	24.4%	0.0%
CCOc1ccc(NC(=O)CC2CC(C)(C)OC2=O)cc1 (stereo not given)	-0.5	4.0%	0.6%	-18.1	-3.1	5.8%	-0.1%
COc1ccc2ccccc2c1/C=N/Nc1cccc(C(=O)O)c1	5.8	-16.2%	·	?	11.7	19.7%[15.4 µM]	·
C=CCNC(=S)N/N=C(\C)c1ccc(OC)cc1	-5.6	-11.3%	-5.5%	-16.8	-7.9	?	·
O=C(c1ccccc1)N1CCN(c2ncnc3c2cnn3-c2ccccc2)CC1	-0.6	10.3%	?	-9.1	-15.1	-14.9%	-18.5%
N#CC(c1ccccc1)N(CCCCl)C(=O)c1ccccc1 (stereo not given)	-1.7	-3.3%	-14.5%	8.1	-9.0	6.0%	0.6%
O=c1nc2s/c(=C\c3ccc(-c4ccccc4[N+](=O)[O-])o3)c(=O)n2nc1-c1ccccc1	·	?	9.4%	?	14.4	3.8%	0.1%
O=C(O)c1cccc(S(=O)(=O)N2CCN(c3ccccn3)CC2)c1	-2.5	6.5%	-4.5%	2.5	0.2	-11.6%	·
CN1CCN(C(c2cc3cc4c(cc3[nH]c2=O)OCCO4)c2nnnn2C2CCCC2)CC1 (stereo not given)	1.3	9.9%	·	1.6	·	·	·
COCCCNC(=O)Cn1cc2c(n1)CCC(C)C2 (stereo not given)	-0.5	13.6%	9.3%	1.5	-1.8	10.6%	-0.6%
CC(=O)Nc1cccc(N2C(=O)CC(N3CCC(C(=O)N4CCCCC4)CC3)C2=O)c1 (stereo not given)	4.9	-10.5%	4.4%	-1.5	3.4	15.3%	-2.0%
CCOc1ccc2[nH]c(=O)c(C(c3nnnn3C3CCCCC3)N3CCN(CC)CC3)cc2c1 (stereo not given)	-1.4	24.4%	7.9%	16.5	3.5	-4.7%	25.1µM*
CCOc1ccc(S(=O)(=O)N2CCCC(C(=O)N3CCOCC3)C2)cc1C (stereo not given)	3.8	4.0%	1.9%	-19.6	-3.7	-8.6%	0.0%
COC(=O)c1cc2c(ccn2-c2ccc(F)cc2)n1CC(C)C	4.9	-16.4%	-13.4%	11.5	-5.3	-4.4%	28.2µM*
NCCCCCc1nnc(SCc2ccc(Cl)c(Cl)c2)o1	4.5	0.6%	8.7%	-23.2	-2.9	-9.6%	0.0%
Cc1cc2ncc(-c3cccc(Cl)c3)cn2n1	-2.9	5.0%	-3.9%	-7.0	-1.0	4.3%	-12.0%
O=C(Nc1nc2c(s1)CCCC2)c1cccc(S(=O)(=O)N2CCCc3ccccc32)c1	·	20.8%	7.1%	-6.9	-14.4	2.8%	?
Cc1ccc(S(=O)(=O)N2CCCCC2)cc1NC(=O)CN1C(=O)c2ccccc2S1(=O)=O	·	·	-11.0%	·	0.6	1.3%	0.0%
Cc1cc(=O)oc(C)c1C(=O)N1CCN(c2ccc(F)cc2)CC1	1.9	11.8%	-1.7%	2.8	-1.1	-30.1%	-1.9%
COc1ccc(C2Nc3ccccc3C(=O)N2NC(C)=O)c(OC)c1 (stereo not given)	5.0	1.7%	5.8%	-6.7	5.3	-12.8%	·
C=CCOc1nc2sc(C)c(C)c2c(=O)n1-c1ccccc1	-0.5	9.1%	4.7%	-2.6	-23.2	?	1.0%
C/C(=N\NC(=O)C(=O)Nc1cccc(Cl)c1C)c1ccncc1	6.9	13.9%	5.5%	0.3	9.5	5.3%	-3.6%
CCC(C)(C)NC(=O)C(c1ccc(F)cc1)N(Cc1ccco1)C(=O)c1snc(C(N)=O)c1N (stereo not given)	1.6	7.5%	8.9%	-8.7	-2.8	-22.3%	-4.3%
COc1ccc(S(=O)(=O)N2CCOCC2)c(Cl)c1Cl	1.6	-11.6%	-15.7%	-8.8	8.0	-41.9%[inhibitor]	0.2%
COc1ccc(Cl)cc1C(=O)Nc1cccc2ncccc12	-4.1	3.6%	-11.1%	17.7	-3.9	23.6%	-2.6%
COC(=O)CNC(=O)Cn1cnc2sc(C)c(S(=O)(=O)N3CCC(C)CC3)c2c1=O	1.2	0.4%	21.1%	-10.5	5.3	?	0.2%
O=C1NCCCC1C(=O)N/N=C/c1ccc([N+](=O)[O-])cc1 (stereo not given)	2.4	10.1%	-5.8%	2.8	-9.9	-7.1%	-0.3%
CCn1c(=N)n(CC(=O)c2ccc(Cl)c(Cl)c2)c2ccccc21	-10.0	?	-7.9%	2.5	-6.7	-0.6%	·
Cc1occc(=O)c1OCc1c(F)cccc1Cl	-2.0	8.5%	7.9%	-6.0	3.2	-13.3%[15.4 µM]	·
CC1=C(C)C(c2ccccc2)NC(=S)N1 (stereo not given)	4.9	4.8%	6.4%	-0.4	-6.8	-39.0%[inhibitor]	1.1%

Additional entries.
SMILES	Menin MLL FP FL	Sfp PPTase inh	gsp antagonist	TRPV1 PAM	D2 PAM	gsp ag	ClpP mod
COc1cccc(NC(=O)COC(=O)c2ccc(F)cc2F)c1	0.2	6.2%	7.6%	-8.0	-7.7	5.8%	2.9%
CCOC(=O)COc1cc(OCC(=O)OCC)c2c3c(c(=O)oc2c1)CCCC3	-1.9	-19.8%	?	-6.1	2.6	11.2µM*	·
CN(C)/C=C/C(=O)C(F)(F)F	-2.2	7.9%	6.8%	-5.5	-9.9	-49.1%[inhibitor]	-0.7%
Cc1cc(C)n2nc(SCCOc3ccc(F)cc3)nc2n1	-0.1	1.5%	-0.4%	8.4	1.5	0.7%	·
O=C(CCN1C(=O)/C(=C/c2ccccc2F)SC1=S)Nc1cccnc1	-3.5	1.1%	?	-15.4	-0.5	-2.0%	-2.7%
Cc1ccc(CN2CC(C(=O)O)CC2=O)cc1 (stereo not given)	-0.4	6.3%	13.9%	-7.7	-6.3	0.0%	-5.3%

Random draw from the library; any-hit rate near 5.1%.
